miR-21 FLuc: miR-21 reporter, rising signal; 340,000 tested, under 10 active; Potency, µM (series often up to 38.3 µM), for the others: at the highest dose reporter change, positive = more light; AID 2288; HeLa miR-21 FLuc reporter, luciferase, 48 h; active = well fitted rising curve with a large enough effect; inconclusive = small, poorly fitted or top-dose-only effect; inactive = no such curve, though single readings can be large or run the other way;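 also: % of control where 0% means no effect; miR-21 action dims this reporter so a rising signal means less miR-21 action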
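Compounds were titrated across several concentrations (up to approximately 40 uM) and incubated 48 hours with HeLa miR-21-FLuc reporter cells (miR-21 target sequence downstream of FLuc, endogenous miR-21). Readout was firefly luciferase luminescence after lytic detection reagent.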
Numbers without * were called inactive; u = inconclusive. This is a subset; the hit share may differ from the screen's.

Compound | miR-21 FLuc
CSc1ccc(CCNC(=O)c2c(C)oc3ncn(C)c(=O)c23)cc1 | -7.5%
Cc1c(C(=O)N(C)C)sc2c1c(=O)n(-c1ccc(F)cc1)c(=O)n2CC(=O)N(C)c1ccccc1 | 5.5%
Cc1ccc2nc(-c3ccc(Cl)c(NC(=O)c4cccnc4)c3)oc2c1 | -8.2%
CCOc1ccccc1NC(=O)c1ccc(C(=O)Nc2ccccc2OCC)cc1 | -7.3%
CCOC(=O)c1c(-c2ccccc2)csc1NC(=O)c1nc(SCC)ncc1Cl | -0.4%
Cc1cccc(NC(=O)Cn2nc(C)c3nn(-c4ccc(Cl)cc4)c(C)c3c2=O)c1C | -5.7%
CC1CCC(Nc2ncnc3onc(-c4ccc(F)cc4)c23)CC1 (stereo not given) | -9.1%
CCCCc1nn2c(=O)cc(COC(=O)c3ccco3)nc2s1 | 0.8%
Cc1nc(-c2ccc(S(=O)(=O)N3CCN(c4ccc(F)cc4)CC3)cc2)co1 | 9.9%
COc1ccc(CNC(=O)CSc2ncc(S(=O)(=O)c3ccc(Br)cc3)c(=O)[nH]2)cc1 | 9.7%
CC(=O)Nc1ccc(/C=C/c2nc(-c3ccccc3O)n(-c3ccccc3)n2)cc1 | -10.1%
COc1ccc(OC)c(NC(=O)CSC2=Nc3ccccc3C3=NC(CCC(=O)NCCc4ccccc4)C(=O)N23)c1 (stereo not given) | -3.3%

The list continues.
Compound | miR-21 FLuc
Cc1ccc(-c2n[nH]c3c2C(c2ccccc2Cl)N(c2ccc(C(=O)O)cc2)C3=O)cc1 (stereo not given) | 22.9%
Cc1ccc(-n2c(SCc3ccccc3F)nc3[nH]ncc3c2=O)cc1Cl | 3.8%
O=C(COCc1cc(-c2ccc(F)cc2)on1)Nc1cc(Cl)cc(Cl)c1 | -7.6%
CCOC(=O)c1ccc(-c2ccc(/C=C(\C#N)c3nc4ccc(C)cc4[nH]3)o2)cc1 | -41.6%
CCC(=O)N1CCc2cc(CNC(=O)Nc3ccc(OC)cc3OC)ccc21 | -0.2%
COc1ccc(Nc2nnc(-n3nc(C)cc3C)c3ccccc23)cc1 | -2.4%
COCCN(Cc1ccco1)C(=O)c1cc2c(=O)[nH]c3ccc(C)cc3c2s1 | -11.8%
CCN(C(=O)Cn1cc(C(=O)c2ccc(F)cc2)c(=O)c2ccc(C)nc21)c1cccc(C)c1 | -0.3%
Cc1cccc(C(=O)NC2=NC(c3ccc(Cl)cc3)CC(=O)N2)c1 (stereo not given) | 1.6%
CCn1c2ccccc2c2nnc(N3CCN(c4ccc(F)cc4)CC3)nc21 | -0.8%
Cc1nn(C(=O)c2c(F)cccc2F)c(C)c1S(=O)(=O)N1CCCCCC1 | -1.0%
COc1ccc(NC(=O)CSc2oc(-c3ccco3)nc2S(=O)(=O)c2ccccc2)c(OC)c1 | 5.1%

Later entries
Compound | miR-21 FLuc
O=C(CSc1nccn1-c1cccc(Cl)c1)Nc1ccc2c(c1)OCO2 | -13.1%
Cc1ccc2c(c1)c(=O)c(C(=O)c1ccc3c(c1)OCO3)cn2Cc1cccc(F)c1 | 12.1%
COc1cc(NC(=O)CSc2ncc(S(=O)(=O)c3ccc(Br)cc3)c(=O)[nH]2)cc(OC)c1 | 2.4%
CCN(CC)CCCNC(=O)Cc1ccc(NC(=O)N2CCCCc3ccccc32)cc1 | 0.8%
COc1ccccc1C(=O)NC1(C(F)(F)F)C(=O)Nc2c1c(=O)[nH]c(=O)n2-c1ccc(F)cc1 (stereo not given) | 0.9%
Cc1cn(C)c(CC(=O)NCc2ccccc2Cl)c1C(=O)O | 4.1%
Cc1cc(C)c(NC(=O)CCc2c(C)nc3c(c(C)nn3C(C)(C)C)c2C)c(C)c1 | 4.5%
CCOc1cc(C#N)c(NC(=O)c2cccc(S(=O)(=O)N3CCOCC3)c2)cc1OCC | -3.2%
CCCc1cc(=O)oc2c3c(ccc12)OCN(Cc1ccccc1OC)C3 | 10.1%
COc1ccc(/C=C/c2nc(C#N)c(NC3CCCCC3)o2)cc1OC | 1.9%
O=C1CSC2(C(=O)N(Cc3c(F)cccc3Cl)c3ccccc32)N1c1ccc(F)c(F)c1 (stereo not given) | -0.4%
CCCSc1nnc2c(n1)OC(CC)N(C(C)=O)c1ccccc1-2 (stereo not given) | 1.2%

Further entries:
Compound | miR-21 FLuc
Cc1cccc(NC(=O)c2oc3ccccc3c2NC(=O)Cc2coc3cc(C)cc(C)c23)c1 | -6.5%
COc1ccc2c(c1)c(=O)c(C(=O)c1ccc(C)c(C)c1)cn2CC(=O)Nc1ccc2c(c1)OCCO2 | -8.5%
Cc1nc(SCC(=O)OC(C)(C)C)c2c3c(sc2n1)CCCC3 | -3.8%
COc1ccc(-c2nc3ccccc3s2)cc1NC(=O)c1ccc(C#N)cc1F | -0.5%
CC1CCN(C(=O)CN2c3ccc(Br)cc3-c3ccccc3S2(=O)=O)CC1 | -37.5%
Cc1cccc(S(=O)(=O)c2cn(Cc3ccccc3)c3cc(N4CCCCC4)c(F)cc3c2=O)c1 | 0.5%
Cc1nn2cc(-c3ccc(OC(C)C)cc3)nc2s1 | u
CCN1CCC(N(Cc2cccc(OC)c2)C(=O)Nc2cccc(C(F)(F)F)c2)CC1 | -11.6%
CSc1ccc(C2c3[nH]c4ccccc4c3CCN2C(=O)CCc2ccccc2)cc1 (stereo not given) | 22.4%
O=C(CSCc1cnn(-c2ccccc2)c1-n1cccc1)NCc1ccc(F)cc1 | 19.9%
CCCCSc1nc(-c2ccc(OC)cc2)ccc1C#N | 0.6%
CN(Cc1ccccc1)c1ncnc2c1nc1n2CCCC1 | -9.9%

An excerpt of these results, with each value named.
Structure: CCCCc1nn2c(=O)cc(COC(=O)c3ccco3)nc2s1
  miR-21 FLuc: 0.8%

Structure: Cc1nc(-c2ccc(S(=O)(=O)N3CCN(c4ccc(F)cc4)CC3)cc2)co1
  miR-21 FLuc: 9.9%

(next part)
Compound | miR-21 FLuc
CCc1ccc(OCC(=O)Nc2ccc3c(c2)c2ccccc2n3CC)cc1 | 0.1%
COc1ccc(N2CCN(Cc3nc4c(c(=O)[nH]c(=O)n4C)n3Cc3ccccc3)CC2)cc1 | -3.8%
Cc1nc2c3ccccc3nc(NNC(=O)CCC(=O)N3CCN(c4cccc(C(F)(F)F)c4)CC3)n2n1 | 15.2%
COc1cc(NC(=O)C(CCSC)NS(=O)(=O)c2ccc3c(c2)oc(=O)n3C)cc(OC)c1 (stereo not given) | 3.4%
Cc1c(CCNC(=O)c2ccco2)sc2nc(-c3ccc(F)cc3)nn12 | -17.2%
COc1cccc2cc(-c3nc(-c4ccc(Cl)cc4)cs3)c(=O)oc12 | -0.9%
COC(=O)c1ccccc1NC(=O)c1ccc2c(c1)CCN2S(C)(=O)=O | -7.3%
Cc1c(C(=O)N2CCCCCC2)c(S(=O)(=O)Nc2ccc(OC(F)(F)F)cc2)c(C)n1C | 19.0%
CC(=O)c1nnn(-c2ccc(C)cc2Cl)c1C | 1.4%
Cc1ccc(C(=O)c2oc3ccccc3c2NC(=O)c2cc(-c3ccc(Cl)cc3)on2)cc1 | -6.1%
CCOC(=O)c1c(NC(=O)COc2ccc(Cl)cc2C)sc(C(C)=O)c1C | 1.0%
Cc1cc(Nc2ccc(C)c(Cl)c2)n2nc(Cc3ccccc3)nc2n1 | 0.1%

Later entries:
Compound | miR-21 FLuc
COc1ccc(Br)c2c1-c1nc(NC(=O)c3cccc(C)c3)sc1C2 | -13.1%
Cc1cc(Br)ccc1NC(=O)c1cn(C2CCCC2)c(=O)c2c1c1ccccc1n2C | -3.7%
O=S(=O)(Nc1ccc(O)c(Sc2nc3ccccc3s2)c1)c1cc(Cl)ccc1Cl | -8.4%
COc1ccc(-c2nn(C)c3sc(C(=O)Nc4cc(OC)c(OC)c(OC)c4)cc23)cc1OC | -1.0%
CCOC(=O)c1ccc(CN(Cc2ccc(Br)cc2)S(=O)(=O)c2cccc(Cl)c2C)cc1 | 3.2%
COc1ccc(C(=O)c2c(N)c(-c3nc(-c4ccccc4)cs3)c3ccccn23)cc1 | 2.9%
Cc1ccc(-c2cn3c(n2)sc2cc(C(=O)NCCC4=CCCCC4)ccc23)c(C)c1 | 1.9%
Cc1cc(C)cc(N2C(=O)N(Cc3cccc(F)c3)c3ccccc3S2(=O)=O)c1 | 10.5%
CCC(Oc1ccc(F)cc1)C(=O)Nc1cc(-c2ccc(C)cc2)no1 (stereo not given) | -0.9%
CCOC(=O)c1ccccc1NC(=O)c1c2c(nc3ccccc13)C(=O)N(C1CCCCC1)C2 | 2.2%
CCOc1ccc(NC(=O)c2c(NCc3cccc(OC)c3OC)sc3c2CCC3)cc1 | -0.2%
CC(=O)Nc1cccc(NC(=O)C(=O)NCCc2csc3nc(-c4ccccc4F)nn23)c1 | -12.6%

The results go on:
Compound | miR-21 FLuc
COc1ccc(NC(=O)C2=C(C)Nc3ncnn3C2c2ccc(C)o2)cc1 (stereo not given) | -0.1%
CCCC(=O)Nc1nnc(SCc2cc(=O)n3cccc(C)c3n2)s1 | -6.2%
CCOC(=O)C1CCN(C(=O)Cn2c(-c3cccs3)cc3cc(Cl)ccc32)CC1 | 2.6%
Cc1nc2ccc(S(=O)(=O)NC(C(=O)N3CCN(c4ccc(Cl)cc4)CC3)C(C)C)cc2s1 (stereo not given) | -7.2%
Cc1ccc(/C=C/C(=O)Nc2ccc(Cl)cc2Cl)cc1 | -11.5%
CC(=O)c1ccc(NC(=O)CN(C)S(=O)(=O)c2cc3c(cc2C)NC(=O)CO3)cc1 | 6.4%
Cc1ccc(C2=Nc3ccccc3N(CC(=O)Nc3ccccc3C)C(=O)C2)cc1C | -44.5%
COc1ccc(CCNC(=O)C(=O)NCC(c2cccs2)S(=O)(=O)c2ccc(F)cc2)cc1 (stereo not given) | u
COC(=O)c1cccc(CN2C(=O)SC(Nc3ccc(Br)cc3)C2=O)c1 (stereo not given) | 3.7%
O=S(=O)(Nc1ccc(OC(F)(F)F)cc1)c1ccc(N2CCCCS2(=O)=O)cc1 | 13.4%
CC(=O)c1cccc(NC(=O)C2CCCN(C(=O)c3cnn(-c4ccccc4)c3-n3cccc3)C2)c1 (stereo not given) | u
Cc1nn2c(=O)cc(COC(=O)c3ccc(NC(=O)C4CCCCC4)cc3)nc2s1 | 12.8%

More compounds
Compound | miR-21 FLuc
CCC(=O)Nc1ccccc1-c1nc2ccccc2n(CC(=O)c2ccc(C)c(C)c2)c1=O | -2.8%
Cc1ccc2scc(N3CCCC(C)C3)c(=O)c2c1 (stereo not given) | -73.4%
Cc1cc(=O)n2c(C(=O)Nc3ccc(C)c(Cl)c3)c(C(=O)Nc3ccccc3)sc2n1 | 3.3%
COc1ccccc1NC(=O)CCn1nc(-c2ccccc2OC)c2c(C)cc(C)nc21 | u
COC(=O)c1scc(-c2ccc(C)cc2)c1S(=O)(=O)Nc1cccc(C(F)(F)F)c1 | 6.3%
CCn1cc(C(=O)N2CCN(c3ccccc3)CC2)c(=O)c2cc(S(=O)(=O)N(C)C3CCCCC3)ccc21 | -9.5%
CCC(C)NC(=O)CCCc1nnc2n(CC(C)C)c(=O)c3sccc3n12 (stereo not given) | 8.3%
Cc1ccc(C2C=C(c3ccc(Cl)cc3)Nc3nc(NS(=O)(=O)c4ccccc4)nn32)cc1 (stereo not given) | -30.5%
COc1ccc(OC)c(NC(=O)C2Cc3ccccc3CN2S(=O)(=O)c2ccc(F)cc2)c1 (stereo not given) | -4.2%
CCOc1ccc(-n2cc(-c3ccccc3)c3c(NCc4ccc(F)cc4)ncnc32)cc1 | 0.6%
COc1ccccc1C(=O)Nc1ccc(-c2nc3ccccc3s2)c(C)c1 | -58.3%
CC(C)CN(CCNC(=O)CCN1N=C(c2ccccc2)CCC1=O)CC(C)C | 0.6%

Following part:
Compound | miR-21 FLuc
CCN(CC)CCCNC(=O)CSc1nc(-c2ccc(OC)cc2)cc(C(F)(F)F)n1 | -2.3%
O=C(NCCc1cccs1)c1ccc(Cn2c(SCc3ccc(F)cc3)nc3cccnc32)cc1 | -1.9%
CCNC(=O)c1ccc(NC(=O)N2CCCCc3ccccc32)cc1 | 3.1%
CCc1ccc(-n2c(=O)c3ccc(C(=O)NCCc4ccccc4)cc3n(Cc3ccccc3C#N)c2=O)cc1 | -8.5%
COC(=O)C1=C(CS(=O)(=O)c2ccc(C)cc2C)NC(=O)NC1c1ccc(C)cc1 (stereo not given) | 18.4%
COc1ccccc1Cc1nc2ccccc2nc1SCC(=O)Nc1cc(Cl)ccc1OC | -4.7%
O=C(NC1CC(=O)N(c2ccccc2)C1)c1ccco1 (stereo not given) | -1.6%
CCN(CC)c1cc(NC2CCCCC2)c2c3c(onc13)-c1ccccc1C2=O | 5.0%
CCCCCn1c(=O)[nH]c2cc(C(=O)N3CCN(c4cccc(Cl)c4)CC3)ccc2c1=O | 19.6%
COc1ccc(N2CCN(CCCNC(=O)C3COc4ccccc4C3)CC2)cc1 (stereo not given) | -4.5%
CC(=O)CSc1nc(-c2ccccc2)[nH]c1S(=O)(=O)c1ccc(C)cc1 | 2.3%
Cc1ccc(C)c(NC(=O)C(Cc2ccccc2)N2Cc3ccccc3C2=O)c1 (stereo not given) | -0.8%

Additional records
Compound | miR-21 FLuc
CCC1CCCCN1CCCNC(=O)c1ccc2c(c1)N(Cc1ccccc1F)C(=O)c1ccccc1S2(=O)=O (stereo not given) | u
CC(=O)c1ccc(NS(=O)(=O)c2cc3[nH]c(=O)c(=O)[nH]c3cc2C)cc1 | -8.9%
CCc1ccc(NC(=O)CSC2=Nc3ccccc3C3=NC(CC(=O)NCc4cccs4)C(=O)N23)cc1 (stereo not given) | -2.2%
COc1ccc(N(C(=O)COc2c(C)cccc2C)S(=O)(=O)c2ccc(Cl)cc2)cc1 | 11.3%

Random excerpt: three entries already listed
Compound | miR-21 FLuc
COc1ccc(NC(=O)C2=C(C)Nc3ncnn3C2c2ccc(C)o2)cc1 (stereo not given) | -0.1%
CC(=O)Nc1cccc(NC(=O)C(=O)NCCc2csc3nc(-c4ccccc4F)nn23)c1 | -12.6%
CCOc1ccccc1NC(=O)c1ccc(C(=O)Nc2ccccc2OCC)cc1 | -7.3%

Screening data as filed in PubChem.
